# Screening data as filed in PubChem.
# miR-21 FLuc: miR-21 reporter, rising signal. HeLa miR-21 FLuc reporter, luciferase, 48 h. 340,000 tested, under 10 active. Potency, µM (titrated, usually from 38.3 µM), without a hit: top-dose reporter change, positive = more light. AID 2288; active = well fitted rising curve with a large enough effect; inconclusive = small, poorly fitted or top-dose-only effect; inactive = no such curve, though single readings can be large or run the other way;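 further: % of control where 0% means no effect; miR-21 action dims this reporter so a rising signal means less miR-21 action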
#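 HeLa cells endogenously expressing miR-21, stably carrying CMV-driven firefly luciferase with a downstream miR-21 binding site, 2000 cells/well. Titrations up to approximately 40 uM, 48 hours; luciferase luminescence read.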
# Starred values were filed as active, the others as inactive; ? = inconclusive.
SMILES	miR-21 FLuc
CCc1ccc(S(=O)(=O)c2nnn3c2nc(NCc2ccccc2)c2cc(Cl)ccc23)cc1	0%
COc1ccc2oc(-c3cccc(NC(=O)c4cc([N+](=O)[O-])ccc4N4CCOCC4)c3)nc2c1	1%
CC(C)CCn1c(/C=C/c2ccccc2)nc2ccccc21	-2%
CSc1cccc(NC(=O)C2CCN(S(=O)(=O)c3ccc4[nH]c5c(c4c3)CCCCC5)CC2)c1	18%
Cc1cc(C)c(NC(=O)Cn2c(=O)n(-c3cccc(C(F)(F)F)c3)c(=O)c3c(C)c(C)sc32)c(C)c1	-6%
COc1ccc(Nc2oc(-c3ccc(COc4ccccc4)o3)nc2C#N)cc1	-10%
Cc1ccc(C)c(N2CCN(C(=O)C(C)n3nc(C)c4sc5ccccc5c4c3=O)CC2)c1 (stereo not drawn)	2%
CC(C)c1cccc(OCCn2c(-c3ccc(Cl)cc3)nc3ccccc3c2=O)c1	3%
O=c1[nH]c2cc(Br)ccc2n2cccc12	-7%
O=C(CSc1nccn1-c1cccc(Cl)c1)Nc1cccc2ccccc12	3%
CCOc1ccc(-n2c(SCC(=O)N3CCCCC3)nc3c([nH]c4ccccc43)c2=O)cc1	1%
CCOc1ccccc1N1CC(c2nc3ccccc3n2CCOc2ccccc2)CC1=O (stereo not drawn)	29%
COc1ccc(S(=O)(=O)NCCc2nnc3ccc(SCC(=O)Nc4ccc(C(F)(F)F)cc4)nn23)cc1	1%
CCCN(Cc1cccs1)C(=O)Nc1ccc(Br)c(C)c1	-1%
CCOC(=O)c1sc(NC(=O)c2nc(SC)ncc2Cl)c(C(=O)OCC)c1C	-6%
COc1ccc(-n2c(=O)c3sc4ccccc4c3n(CC(=O)NCc3ccccc3)c2=O)cc1	-3%
CCN(CC)C(=O)c1cnn(-c2ccc(F)cc2)c1-n1cccc1	3%
O=C1CC(c2ccccc2)Cc2[nH]c(=O)c(-c3nc(-c4cccc(Cl)c4)cs3)cc21 (stereo not drawn)	18%
Cc1ccc(NC(=O)Cc2coc3c(C)c(C)ccc23)cc1Cl	2%
CCOc1ccc(N(C)S(=O)(=O)c2ccc3[nH]cc(C(=O)NCc4ccccc4)c(=O)c3c2)cc1	-2%
CN(C)CCNC(=O)C(=O)NCC(c1cccnc1)N1CCN(c2ccccc2)CC1 (stereo not drawn)	-23%
CCOc1ccc(NC(=O)c2cc(S(=O)(=O)N3CCCCCC3)cn2C)cc1	-6%
Cc1cc(C(=O)N2CCN(c3ccccc3)CC2)c2c(C)nn(-c3cccc(F)c3)c2n1	3%
CCCC(=O)Nc1c(C(=O)N2CCN(c3ccccc3)CC2)oc2ccccc12	20%
COc1ccc(OC)c(NC(=O)c2ccc3c(c2)c(C)c(C)n3Cc2ccc(F)cc2)c1	-8%
Cn1c(NCCO)nc2c1c(=O)n(Cc1ccccc1Cl)c(=O)n2C	-5%
Cc1ccc(N(C)C(=O)Cn2nc(Cc3ccncc3)c3ccccc3c2=O)cc1C	-15%
CN(C)S(=O)(=O)N(CC(=O)NCCSCc1ccc(Cl)cc1Cl)c1ccccc1	5%
CCOC(=O)c1c(C)[nH]c(C)c1S(=O)(=O)N1CCC(C(=O)N2CCN(c3ccc(Cl)cc3)CC2)CC1	16%
COC(=O)c1c(NC(=O)CCCOc2ccc(C(C)(C)C)cc2)sc2c1C(C(=O)OC)CC2 (stereo not drawn)	?
COc1ccc(NC(=O)c2cc3ccccc3o2)c(OC)c1	-64%
CSc1nn(Cc2ccc(C)cc2)c(N)c1S(=O)(=O)c1ccccc1	20%
Cc1onc(-c2ccccc2Cl)c1C(=O)Oc1cc(F)cc(F)c1	2%
O=C(Nc1nc2ccc(S(=O)(=O)N3CCCC3)cc2s1)c1cccc(F)c1	-15%
Cc1cccc(C)c1-n1ncc(C(=O)Nc2ccc3c(c2)OCCO3)c1C1CCN(C(=O)OC(C)(C)C)CC1	-12%
O=S(=O)(c1ccc(Br)cc1)c1nc(-c2cccs2)oc1SCc1ccc(F)cc1	7%
COc1cccc(NC(=O)c2cc(CN3CCOCC3)on2)c1	-31%
C=CCc1c(C)nc2nc(SCC(=O)Nc3ccccc3CC)nn2c1C	-3%
COc1ccc(N2C(=O)CS(=O)(=O)C23C(=O)N(Cc2ccc(F)cc2)c2ccc(C)cc23)cc1 (stereo not drawn)	-6%
O=C(COc1ccc(F)cc1)Nc1ccc2nc(SCCOc3ccccc3)sc2c1	-12%
Cc1cccc(C)c1NC(=O)c1cc(S(=O)(=O)N2CCCc3ccccc32)ccc1F	7%
Cc1ccc(NC(=O)C(Cc2ccccc2)NS(=O)(=O)c2cccc3nsnc23)c(C)c1 (stereo not drawn)	?
CCc1nn(CCCC(=O)NCc2ccccc2OC)c(=O)c2cc3occc3n12	-13%
Cc1ccc(NC(=O)C2CCCN2S(=O)(=O)c2cccc3nsnc23)c(Br)c1 (stereo not drawn)	4%
O=C(Nc1nc(-c2ccc(Br)cc2)ns1)c1ccccc1F	-19%
CCCCN(C)C(=O)C1CCC(Cn2c(=O)[nH]c3ccsc3c2=O)CC1 (stereo not drawn)	?
COc1ccc(-c2nc(SCC(=O)c3ccc(Br)cc3)n[nH]2)cc1	-1%
CCN(CC)c1ccc(NC(=O)C2CCN(S(=O)(=O)c3ccc4c(c3)oc(=O)n4C)CC2)c(C)c1	5%
COc1ccc(NC(=O)c2cc3c(=O)[nH]c4ccccc4c3n2C)cc1Cl	-13%
CCOc1cc(CNS(=O)(=O)c2ccc3c(c2)C(C)(C)C(=O)N3)cc(OCC)c1OCC	0%
Cc1ccccc1OCCn1c(CCNC(=O)C2CCCCC2)nc2ccccc21	-7%
CCc1ccc(OCc2cc(=O)n3cc(C)sc3n2)cc1	-20%
CCN(c1cccc(C)c1)S(=O)(=O)c1cc2c(cc1C)n(C)c(=O)c(=O)n2C	-2%
Cc1ccc(C)c(Cn2c3ccccc3c3cnn(CC(=O)NC4CCC(C)CC4)c(=O)c32)c1 (stereo not drawn)	-1%
COc1cc(OC)c(N(C)C(=O)C2CCCN(c3ncnc4c3nc3n4CCCCC3)C2)cc1Cl (stereo not drawn)	15%
CCC(=O)N1CCc2cc(Br)cc(S(=O)(=O)NCc3ccccc3)c21	8%

# Going on with the list:
SMILES	miR-21 FLuc
CCc1ccc(N(CC)C(=O)c2sc3nc4n(c(=O)c3c2C)CCCC4)cc1	2%
CCCOc1ccc(C(=O)Nc2cc3c(cc2N2CCOCC2)n(C)c(=O)n3C)cc1	-6%
COc1ccc(OCc2nc3ccccc3n2Cc2ccccc2Cl)cc1	4%
CCc1noc(-c2ccc(N3CCC(C)CC3)c([N+](=O)[O-])c2)n1	-18%
CCc1nc(-c2cc(S(=O)(=O)N3CCN(c4ccc(OC)cc4)CC3)ccc2OC)no1	-1%
Cc1ccccc1Cn1c(=O)n(CCCCC(=O)NCc2ccc3c(c2)OCO3)c(=O)c2ccccc21	14%
O=C(Nc1ccc(F)c(Cl)c1)c1cc(S(=O)(=O)NCc2ccc3c(c2)OCO3)ccc1F	7%
Cc1ccc(-c2ccc(CCC(=O)O)n2-c2ccc(C)c(Cl)c2)cc1	-25%

# Taken from above:
# Entry for CCN(c1cccc(C)c1)S(=O)(=O)c1cc2c(cc1C)n(C)c(=O)c(=O)n2C in miR-21 FLuc: -2%
# Entry for CCc1ccc(OCc2cc(=O)n3cc(C)sc3n2)cc1 in miR-21 FLuc: -20%

# Returning to the listing, starting 2 compounds before the break.
SMILES	miR-21 FLuc
O=C(Nc1ccc(F)c(Cl)c1)c1cc(S(=O)(=O)NCc2ccc3c(c2)OCO3)ccc1F	7%
Cc1ccc(-c2ccc(CCC(=O)O)n2-c2ccc(C)c(Cl)c2)cc1	-25%
COc1ccc(OC)c(NC(=O)CCn2cnnn2)c1	4%
COc1cccc(Cn2nnc(C(=O)Nc3cc(C)ccc3C)c2N)c1	1%
CC(=O)c1ccc(N2C(=O)N(Cc3cccc(C(F)(F)F)c3)c3ccccc3S2(=O)=O)cc1	20%
Cc1cc(C)n(-c2nc3ccccc3nc2Nc2ccc(Cl)cc2Cl)n1	-1%
COc1ccccc1-c1nc(CNC(=O)Nc2ccccc2)c(C)o1	-12%
O=C(NCCc1ccc(Cl)cc1)C1CCN(Cc2cc3ccccc3n2Cc2ccccc2)CC1	?
CCOC(=O)c1cnc2c(ccc3ccccc32)c1Nc1cccc(C(F)(F)F)c1	-10%
CC(C)OCc1cc(CN2CCN(c3cccc(C(F)(F)F)c3)CC2)c(O)c2ncccc12	?
CCc1ccc(NC(=O)Cn2c(=O)n(-c3ccccc3C)c(=O)c3c2c2cc(OC)ccc2n3C)cc1	18%
Cc1cccc(NC(=O)CSc2cn(CC(=O)N3CCCC3)c3ccccc23)c1C	14%
COC(=O)c1ccccc1NC(=O)c1ccc(CN2CC(=O)N3CCCCC3C2=O)cc1 (stereo not drawn)	0%
COc1ccc2c(CNCCc3cccs3)c(C(=O)O)n(Cc3ccccc3C)c2c1	0%
Cc1coc2cc3oc(=O)c(CC(=O)NCc4ccc(F)cc4)c(C)c3cc12	?
COc1ccc(NC(=O)CC2C(=O)N(c3ccc(F)cc3)C(=O)N2Cc2cccnc2)cc1 (stereo not drawn)	-6%
CCOC(=O)c1c(NC(=O)COc2ccccc2F)sc2c1CCCC2	-3%
CCc1nc(-c2cc(S(=O)(=O)N3CCN(c4ccccc4OC)CC3)ccc2OC)no1	-14%

# Remaining list, next part.
canonical_smiles,miR-21 FLuc
CN(Cc1ccccc1)S(=O)(=O)c1ccc(-c2cnc(C3CC3)o2)cc1,4%
Clc1ccccc1N1CCN(c2ncnc3c2c(-c2ccccc2)cn3-c2ccccc2)CC1,-4%
Cc1nc(-n2nc(C)c(CCC(C)C)c2C)sc1C(=O)Nc1ccc(Br)cc1,-17%
COC(=O)c1ccccc1NC(=O)c1nc(S(=O)(=O)Cc2ccccc2F)ncc1Cl,0%
CCCCN(CCCNC(=O)c1cc(Nc2ccccc2OC)nc2ccccc12)c1ccccc1,3%
COc1ccc(Nc2nc3ccccc3c3nnc(C)n23)cc1Cl,-18%
COc1ccc(F)cc1S(=O)(=O)Nc1ccc2c(c1)CCCN2C(=O)c1cccs1,0%
O=C(NCC(c1cccnc1)N1CCOCC1)C(=O)Nc1cccc(Cl)c1 (stereo not drawn),-5%
CCc1ccc(CNC(=O)c2sc3ncnc(N(C)C4CCCCC4)c3c2C)cc1,8%
CCOc1ccccc1NC(c1nnc(-c2ccccc2)o1)c1ccc(F)cc1Cl (stereo not drawn),5%
Cc1cc(C(=O)Nc2ccc(Cl)cc2)c2c(C)nn(-c3ccccc3)c2n1,3%
CCOc1ccc(CN2CCN(S(=O)(=O)c3ccc(Cl)cc3)CC2)cc1,8%
Cc1cc(C)c2oc(C(=O)Nc3ccc(S(=O)(=O)N4CCCCCC4)cc3)cc(=O)c2c1,0%
COc1cccc(Cn2c(=O)n(CCc3ccccc3)c(=O)c3c2c2cc(OC)ccc2n3C)c1,5%
CC(=O)Nc1c(C)nn(-c2ccccc2)c1N1CCC(C(=O)NCc2ccc(Cl)cc2)CC1,-5%
Cc1cccc(NC(=O)CSc2nc3ccc(NC(=O)CCc4ccccc4)cc3s2)c1,-2%
Cc1ccc2c(CN3CCN(C(=O)c4ccc(F)cc4)CC3)cc(=O)oc2c1,-4%
Cc1c(Cl)cccc1NC(=O)c1cc(S(=O)(=O)N2CCCCC2)cn1C,22%
Cc1cc(C)c(S(=O)(=O)N2CCC(n3c(C(F)(F)F)nc4cccnc43)CC2)c(C)c1,0%
CCCNC(=O)c1ccc2nc(CCc3ccccc3)oc2c1,-45%
Cc1cccc(CNC(=O)Cn2c(-c3cccs3)cc3ccccc32)c1,0%
CNC(=O)c1cnc2sc(N3CCC(C)CC3)nn2c1=O,-41%
O=C(NCc1ccccc1F)C1CCN(c2nn3cc(-c4ccc(F)cc4)nc3s2)CC1,-41%
COC(=O)c1ccc(Cn2nnc3sc4c(c3c2=O)CCCC4)cc1,-60%
COc1ccc(S(=O)(=O)N(CC(=O)Nc2ccc(C)cc2)c2ccc(C)cc2)cc1OC,-3%

# Filtered by structure: the entries above with a tert-butyl group.
canonical_smiles,miR-21 FLuc
COC(=O)c1c(NC(=O)CCCOc2ccc(C(C)(C)C)cc2)sc2c1C(C(=O)OC)CC2 (stereo not drawn),?
Cc1cccc(C)c1-n1ncc(C(=O)Nc2ccc3c(c2)OCCO3)c1C1CCN(C(=O)OC(C)(C)C)CC1,-12%

# Molecules listed so far that contain a CF3 group, in the order listed:
canonical_smiles,miR-21 FLuc
Cc1cc(C)c(NC(=O)Cn2c(=O)n(-c3cccc(C(F)(F)F)c3)c(=O)c3c(C)c(C)sc32)c(C)c1,-6%
COc1ccc(S(=O)(=O)NCCc2nnc3ccc(SCC(=O)Nc4ccc(C(F)(F)F)cc4)nn23)cc1,1%
CC(=O)c1ccc(N2C(=O)N(Cc3cccc(C(F)(F)F)c3)c3ccccc3S2(=O)=O)cc1,20%
CCOC(=O)c1cnc2c(ccc3ccccc32)c1Nc1cccc(C(F)(F)F)c1,-10%
CC(C)OCc1cc(CN2CCN(c3cccc(C(F)(F)F)c3)CC2)c(O)c2ncccc12,?
Cc1cc(C)c(S(=O)(=O)N2CCC(n3c(C(F)(F)F)nc4cccnc43)CC2)c(C)c1,0%

# Continuation.
canonical_smiles,miR-21 FLuc
COc1ccc(NC(=O)Cn2c(SCc3ccc(C)cc3)nc3cccnc32)c(OC)c1,-19%
CCOc1ccc(C(=O)Nc2ccc3nc(N(CC)CC)cc(C)c3c2)cc1,0%
Cc1cccc(C(=O)NCCc2nc3ccccc3n2Cc2ccc(Cl)cc2)c1,9%
COc1cccc(CNC(=O)C(NS(=O)(=O)c2cccs2)C(C)C)c1 (stereo not drawn),-2%
Cc1c(C(=O)Nc2ccc(C(=O)O)cc2)nnn1-c1ccccc1,23%
CCOc1ccc(NCc2cccn2-c2nnc(N3CCC(C(=O)NCc4ccc(C)cc4)CC3)s2)cc1,17%
CCC(=O)N1CCc2cc(Br)cc(S(=O)(=O)CCC(=O)NCCc3ccc(C)cc3)c21,-2%
O=S(=O)(c1ccc(Cl)cc1)c1nc(-c2cccs2)oc1SCc1ccccc1F,-2%
CC(=O)c1ccc(NC(=O)CSc2ccc3nc(-c4ccccc4)cn3n2)cc1,-48%
CC(=O)c1ccc(NC(c2ccc(F)cc2)c2nnc(-c3ccccc3)o2)cc1 (stereo not drawn),0%

# Some of the compounds tested, so the mix of outcomes need not match the whole.
